Source: PubChem BioAssay (Southern Research Institute)
Mtb H37Rv – Mycobacterium tuberculosis H37Rv growth inhibition, cell based, confirmatory dose response (AID 1949) | most inactive calls were filed without a number and no value below 0 was filed | inhibition, % at 10 µg/mL, or IC50 in µg/mL where a hit was titrated | actives 1.6% (n = 100,000);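 active = confirmed in a dose series; inconclusive = about 50% or more but not retested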;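 also: bacteria grown 7 days with compound before Alamar blue readout; 0% = untreated bacteria and 100% = reference antibiotic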
* = called active by the depositor; i = inactive; ? = inconclusive. Some of the compounds tested. The share of hits here may be higher or lower than overall.

SMILES	Mtb H37Rv
O=[N+]([O-])c1ccc(NC(=S)N2CCN(c3ncccn3)CC2)cc1	i
CCOc1cc(CNCc2ccncc2)cc(Cl)c1OCc1ccccc1	13%
CC(=O)Nc1nc(-c2ccc(C)cc2)c(C)s1	i
CCOc1cccc2cc(C(=O)N3CCOCC3)c(=O)oc12	i
N#Cc1c2c(c(=O)n3c1[nH]c1ccccc13)CCCC2	i
COc1ccc(NC(=O)CN2c3cccc4cccc(c34)S2(=O)=O)c(OC)c1	i
COc1ccccc1-c1nnc(SCc2c(F)cccc2F)n1N	i
COc1ccc(S(=O)(=O)NCCSc2ccccc2)c(Cl)c1Cl	i
CCOc1ccc(NC(=O)C2CC2(c2ccccc2C)c2ccccc2C)cc1 (centres undefined)	3%
COc1ccccc1CNC(=O)C(=O)NC(C)c1ccccc1 (centres undefined)	i
COc1ccc(C(=O)n2nnc3ccccc32)cc1	i
Cc1ccc(C(=O)Nc2sc3c(c2C(N)=O)CCCCC3)cc1	i
Cc1ccc(OCC(=O)n2nc(C)c(Sc3ccccc3[N+](=O)[O-])c2C)c(C)c1	i
CCOc1cccc(C(c2c[nH]c3ccccc23)c2c[nH]c3ccccc23)c1O	i
O=C(NC1CCCCC1)N1CCN(c2ccc([N+](=O)[O-])cc2)CC1	i
Cc1ccc(C(C)C)c(OCC(=O)NC(=S)Nc2cccc(C(=O)O)c2)c1	i
Cc1ccc(C(=O)NC2CCCc3ccccc32)o1 (centres undefined)	i
CC(C)(C)NCCCOc1ccc(Br)cc1Cl	i
O=C(Nc1ccc(OC(F)(F)F)cc1)c1cc2c(=O)n3ccccc3nc2s1	1%
CCC(C)c1ccc(OCCN2CCCC2)cc1 (centres undefined)	i
Cc1cccc(NC(=O)CSC2=C(C#N)C3(CCC(C(C)(C)C)CC3)C(C#N)C(=O)N2)c1 (centres undefined)	i
Cc1ccc(-c2ccc(S(=O)(=O)Nc3ccc(F)cc3)cc2)cc1	i
C=CCN(CC=C)C(=O)c1ccc([N+](=O)[O-])c(C)c1	1%
Cc1ccc(NS(=O)(=O)c2ccc(NC(=O)c3ccc(Br)o3)cc2)c(C)c1	i

Ordered by length of the SMILES (highest first): some entries from above.
SMILES	Mtb H37Rv
Cc1cccc(NC(=O)CSC2=C(C#N)C3(CCC(C(C)(C)C)CC3)C(C#N)C(=O)N2)c1 (centres undefined)	i
Cc1ccc(OCC(=O)n2nc(C)c(Sc3ccccc3[N+](=O)[O-])c2C)c(C)c1	i
Cc1ccc(NS(=O)(=O)c2ccc(NC(=O)c3ccc(Br)o3)cc2)c(C)c1	i
CCOc1cccc(C(c2c[nH]c3ccccc23)c2c[nH]c3ccccc23)c1O	i
O=C(Nc1ccc(OC(F)(F)F)cc1)c1cc2c(=O)n3ccccc3nc2s1	1%
O=C(NC1CCCCC1)N1CCN(c2ccc([N+](=O)[O-])cc2)CC1	i
CCOc1ccc(NC(=O)C2CC2(c2ccccc2C)c2ccccc2C)cc1 (centres undefined)	3%
Cc1ccc(-c2ccc(S(=O)(=O)Nc3ccc(F)cc3)cc2)cc1	i
C=CCN(CC=C)C(=O)c1ccc([N+](=O)[O-])c(C)c1	1%
Cc1ccc(C(=O)Nc2sc3c(c2C(N)=O)CCCCC3)cc1	i
COc1ccccc1-c1nnc(SCc2c(F)cccc2F)n1N	i
Cc1ccc(C(=O)NC2CCCc3ccccc32)o1 (centres undefined)	i
CC(C)(C)NCCCOc1ccc(Br)cc1Cl	i
CCC(C)c1ccc(OCCN2CCCC2)cc1 (centres undefined)	i

Going on with the list:
SMILES	Mtb H37Rv
CCC(=O)NC(/C=C/c1ccccc1)c1cc([N+](=O)[O-])c2cccnc2c1O (centres undefined)	i
Clc1cccc(OCCCOc2ncnc3ccccc23)c1	2%
CC1CCN(C(=S)c2ccc(O)cc2)CC1	i
O=C(O)c1ccc2c(c1)C1C=CCC1C(c1cccc(Br)c1)N2 (centres undefined)	i
CCOC(=O)N1CCN(CC(O)COc2ccc(C)cc2C(C)(C)C)CC1 (centres undefined)	7%
CCOC(=O)C1CCN(C(=O)C(=O)c2c[nH]c3ccccc23)CC1	i
O=S(=O)(c1cc(Cl)ccc1Cl)N1CCN(c2ncccn2)CC1	i
COc1ccc(C)cc1S(=O)(=O)N(C)CC(=O)NC1CC1	i
Cc1ccc(C(=O)NCc2ccccc2)cc1	1%
O=C1N(c2ccc(Cl)cc2)C2CS(=O)(=O)CC2N1c1cccc(Cl)c1 (centres undefined)	0%
CCN(CC)C(=O)c1sc(NC(=O)COc2ccc(Cl)cc2C)c(C(=O)OC)c1C	i
COc1ccccc1NC(=O)CN(c1ccc(Oc2ccccc2)cc1)S(C)(=O)=O	1%
OC(CN1C2=NCCCN2c2ccccc21)c1ccc2c(c1)OCO2 (centres undefined)	6%
CC(C)(C)c1ccc(S(=O)(=O)NCC(=O)N2CCN(C(=O)c3ccco3)CC2)cc1	i
CCOC(=O)c1ccc(NC(=O)CCSc2ccccc2)cc1	29%
Cc1ccc(OCC(=O)N(Cc2nc(-c3ccccc3)no2)C(C)C)cc1C	i
Cc1ccc(C(=O)N2CCC(C(=O)Nc3ccc(Cl)c(C(F)(F)F)c3)CC2)cc1	i
CCN1CCN(C(=S)c2ccc(SC)cc2)CC1	i
CC(=O)c1ccc(N2CCN(C(=O)c3sc4ccccc4c3Cl)CC2)cc1	1%
Cc1ccc(OCC(=O)NC2CC(C)(C)NC(C)(C)C2)cc1C	i
COc1ccccc1NC(=O)/C=C/c1cc(Br)cs1	?
CCC1(C)Cc2c(sc3nn[nH]c(=O)c23)CO1 (centres undefined)	i
COc1cc2c(cc1OC)C(c1sccc1C)CC(=O)N2 (centres undefined)	0%
CC(=O)c1cc(F)c(N2CCc3ccccc3C2)cc1C	1%
Cc1ccccc1-n1c(COc2ccc(Cl)cc2Cl)n[nH]c1=S	1%
CC12C=CC(O1)C1C(=O)N(c3ccc(Cl)cc3)C(=O)C12 (centres undefined)	7%
O=C(CN1C(=O)C2C3C=CC(C4CC34)C2C1=O)OCC(=O)c1ccc(-c2ccccc2)cc1 (centres undefined)	11%
COC(=O)C(=O)N1CCN(CCN2C(=O)c3cccc4cccc(c34)C2=O)CC1	i
CCCCN1C(=O)C(NC(C)=O)c2ccccc21 (centres undefined)	i
COC(=O)c1c(NC(=O)c2cc3ccccc3oc2=O)sc2c1C(C(=O)OC)CC2 (centres undefined)	i
Cc1cccc(-c2noc(CCCOc3ccccc3)n2)c1	4%
CC1=C(C(=O)Nc2ccc(Cl)cc2)C(c2ccco2)NC(=S)N1 (centres undefined)	i
CN(C)C(=S)Nc1nc2ccccc2s1	<0.1µg/mL*
CCOc1cc(CO)cc([N+](=O)[O-])c1O	7%
COc1ccc(NC(=O)C(C)Sc2nc(C)cc(=O)[nH]2)cc1 (centres undefined)	i
COc1cc(NC(=S)NC(=O)c2ccc(-c3cccc(Cl)c3)o2)ccc1NC(=O)C(C)C	3%
COc1ccc(C)cc1NC(=O)CSc1nnc(CNC(=O)c2cccc(C)c2)n1C	1%
Cc1nc(Nc2ccccc2)sc1C	i
COC(=O)C1=CN(CC2CCCO2)C=C(C(=O)OC)C1c1ccc(OC)cc1 (centres undefined)	2%
O=C(CSc1nc(-c2ccco2)cc(C(F)(F)F)n1)NN1CCCCC1	i
CC(C)(C)c1ccc(OCC(=O)Nc2ccc(N3CCN(Cc4ccccc4)CC3)cc2)cc1	1%
CCN1CCN(c2oc(-c3ccccc3F)nc2C#N)CC1	i
COc1ccc(C(=O)NNC(=O)c2ccccc2OC)cc1I	i
Cc1ccc([N+](=O)[O-])cc1NC(=S)NC(=O)c1ccc(-c2ccccc2)cc1	2%
Cc1nc2cc(NC(=O)c3ccc(Cl)cc3)ccc2n1C	i
Cc1ccc([N+](=O)[O-])cc1NC(=O)c1ccc(Cl)c(Cl)c1	i
Cc1ccc2nc(-c3ccc(C)c(NC(=O)c4ccco4)c3)oc2c1	i
O=C(NC1CCCCC1)c1cccc(COc2ccc3c(c2)CCC3)c1	i
CC(C)CCNC(=O)C1CCN(S(=O)(=O)c2ccc(F)cc2)CC1	i
O=C(CC1C(=O)N(c2ccc(F)cc2)C(=S)N1Cc1ccccn1)Nc1ccc(F)cc1 (centres undefined)	i
CCc1ccc(CCC(=O)Nc2ccc(I)cc2)o1	?
COc1ccc(C(=O)Nc2nnc(SCC(=O)c3ccc4c(c3)Cc3ccccc3-4)s2)cc1OC	i
COc1ccc(OC)c(-n2c(Cc3ccccc3)n[nH]c2=S)c1	i
O=C(Cn1cc(C(=O)C2CCCCC2)c2ccccc21)NC1CC1	i
CCc1ccc(N(CC(=O)Nc2ccccc2C(=O)N2CCCC2)S(=O)(=O)c2ccccc2)cc1	i
Cc1ccnc(NC(=S)NC(=O)c2ccc(Cl)cc2)c1	i
Cc1c(C)c2ccc(OC(C)c3ccccc3)c(C)c2oc1=O (centres undefined)	4%
O=C(NC(=S)Nc1ccc(N2CCOCC2)c(Cl)c1)c1ccc(F)cc1Cl	i
O=C(CN1C(=O)c2ccc(Br)cc2C1=O)OCc1c(F)cccc1Cl	0%
O=C(CC(c1ccccc1)c1ccccc1)NNC(=S)NCC1CCCO1 (centres undefined)	i
Next part.
SMILES	Mtb H37Rv
CCCCOc1ccc2c(C)c(CC(=O)OC)c(=O)oc2c1C	4%
CC(=O)Nc1nnc(SCC(=O)Nc2ccc(C)cc2)s1	i
O=C(NCc1ccc(F)cc1)c1ccccc1-c1ccccc1	?
CCCCn1c(CO)nc2ccccc21	i
Cc1cc2nc(-c3cccc(NC(=O)c4cccnc4)c3)oc2cc1C	i
CC(C)(C)C(=O)Nc1ccc2c(c1)OCCO2	i
CS(=O)(=O)N1CCC(C(=O)NNC(=S)Nc2cccc3ccccc23)CC1	0%
O=C(CC1NC2CCCCC2NC1=O)Nc1ccccc1 (centres undefined)	i
Cc1ccc(OCC(=O)c2ccccc2)cc1C	4.9µg/mL*
CCOC(=O)c1ccc(Oc2nc(NCc3ccccc3)nc(N(C)C)n2)cc1	i
O=C(CN1CCN(Cc2ccccc2)CC1)Nc1cccc(Cl)c1Cl	i
CC12CC=CCC1C(=O)N(CCC(=O)O)C2=O (centres undefined)	i
Cc1cc2nn(-c3ccc(Cl)cc3)nc2cc1NC(=O)c1cc(-n2cnnc2)ccc1Cl	i
CC(C)(Oc1ccc(Cl)cc1)C(=O)Nc1cccc2c1CCCC2	1%
CCn1c(SCC(=O)Nc2ccc(Br)cc2C)nnc1C(NC(=O)c1ccc(C)cc1)C(C)C (centres undefined)	18%
Cc1ccc(C(=O)Nc2ccc3c(c2)C(=O)N(C)C3=O)c(C)c1	i
O=C(Nc1ccccc1F)C1CC(=O)N(c2ccc(F)cc2)C1 (centres undefined)	i
CCCCOc1cccc(C(=O)Nc2ccc(N(CC)CC)cc2C)c1	18%
CN(C)S(=O)(=O)N1CCN(c2ccc([N+](=O)[O-])c(NCCc3ccccc3)c2)CC1	2%
O=C1CC(c2cccc(F)c2)Sc2nc(-c3ccc(F)cc3)nn21 (centres undefined)	i
Cn1nnnc1SCC(=O)N1CCc2ccccc21	i
CC(NC(=O)C1CCC1)c1ccc(I)cc1 (centres undefined)	i
Cc1ccc(C(=O)Nc2ccccc2N2CCN(C(=O)c3ccccc3)CC2)cc1[N+](=O)[O-]	i
CCOc1ccc(C(=O)Nc2ccccc2OC(F)F)cc1Br	i
Cc1cc(Cl)ccc1OCCNC(=O)C(c1ccccc1)c1ccccc1	0%
O=C(COc1ccc2ccccc2c1Br)Nc1ccc(F)c(Cl)c1	i
COc1cccc(C(=O)NN2CCCCC2)c1OC	4%
CCOc1ccc(NC(=O)C2CC(=O)N(C3CCCCC3)C2)cc1 (centres undefined)	i
COc1ccc(CCNC(=S)Nc2cccc(F)c2)cc1	50%
CCOc1cc(C(=O)Nc2cccc(C)c2C)ccc1OCc1ccccc1	i
OCC1OC(Oc2ccc3cc(Br)ccc3c2)C(O)C(O)C1O (centres undefined)	i
O=S(=O)(Nc1cc(Br)c(O)c2ccccc12)c1ccc(F)cc1	3.1µg/mL*
CCc1ccccc1N(CC(=O)Nc1c(C)cc(C)cc1C)S(C)(=O)=O	i
CC(C)(C)c1ccc(C(=O)n2cnc3ccccc32)cc1	i
N#CC1=C(SCc2ccccc2Cl)NC(=O)CC1c1ccccc1F (centres undefined)	3%
COc1cc(OC)cc(C(=O)N2CCC(N3CCN(c4ccccc4)CC3)CC2)c1	i
CC(=O)Nc1ccc(NC(=O)CC(c2ccccc2)c2ccccc2)cc1	i
COc1cc(CNCCc2ccccc2)ccc1OCC(N)=O	i
O=C(Nc1sc2c(c1C(=O)N1CCCCC1)CCC2)c1ccccc1F	i
CS(=O)(=O)n1nc(-c2ccco2)nc1NCc1ccccc1	i
O=C(CCN1C(=O)/C(=C/c2ccccc2Cl)SC1=S)Nc1ccc(Cl)cc1	i
Cc1ccc(NC(=O)CC(c2ccccc2)c2ccccc2)cc1[N+](=O)[O-]	i
CCc1ccc(NC(=O)CN(c2ccccc2OC)S(C)(=O)=O)cc1	i
CCc1ccc(N(CC(=O)NC(C)CC)S(C)(=O)=O)cc1 (centres undefined)	i
O=C(Nc1cccc2ccccc12)c1ccc(I)o1	i
N#Cc1ccc(C(=O)Nc2ccc(OCc3ccccc3)cc2)c(F)c1	i
COc1ccc(-c2nc3ccccc3s2)cc1NC(=O)c1cc(C)cc(C)c1	i
COC(=O)c1c(NC(=S)Nc2ccc(S(=O)(=O)NC34CC5CC(CC(C5)C3)C4)cc2)sc(C(=O)N(C)C)c1C	i
CS(=O)(=O)Nc1ccc(C(=O)NCc2ccccn2)cc1	i
Cc1ccc(OCCSc2ncccn2)c(Cl)c1	i
CCn1c(SCC(=O)Nc2cc(Cl)cc(Cl)c2)nnc1-c1ccccc1	i
CC1CN(CCCOc2ccc(Br)cc2Cl)CC(C)O1 (centres undefined)	i
O=C(CC1Nc2ccccc2NC1=O)Nc1cc(Cl)cc(Cl)c1 (centres undefined)	?
